High-throughput results: PubChem BioAssay, Broad Institute
AF4-AF9 inh – inhibitors of AF4 peptide binding to AF9, primary screen, biochemical, AlphaScreen, biotin-AF4 peptide, FLAG-AF9, single point. Protein AF-9 (Homo sapiens), P42568. inhibition, % at 10 µM. actives 0.47% (n = 350,000). AID 651704, 2012;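 active = every replicate reaching a set inhibition limit, whatever the replicate mean, cut at about 25% in these data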;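 also: 0% = plate neutral control median and 100% = total signal loss; the record names both 10 and 1 µM as test concentration; the first replicate is given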
Target sequence (P42568 whole entry, looked up): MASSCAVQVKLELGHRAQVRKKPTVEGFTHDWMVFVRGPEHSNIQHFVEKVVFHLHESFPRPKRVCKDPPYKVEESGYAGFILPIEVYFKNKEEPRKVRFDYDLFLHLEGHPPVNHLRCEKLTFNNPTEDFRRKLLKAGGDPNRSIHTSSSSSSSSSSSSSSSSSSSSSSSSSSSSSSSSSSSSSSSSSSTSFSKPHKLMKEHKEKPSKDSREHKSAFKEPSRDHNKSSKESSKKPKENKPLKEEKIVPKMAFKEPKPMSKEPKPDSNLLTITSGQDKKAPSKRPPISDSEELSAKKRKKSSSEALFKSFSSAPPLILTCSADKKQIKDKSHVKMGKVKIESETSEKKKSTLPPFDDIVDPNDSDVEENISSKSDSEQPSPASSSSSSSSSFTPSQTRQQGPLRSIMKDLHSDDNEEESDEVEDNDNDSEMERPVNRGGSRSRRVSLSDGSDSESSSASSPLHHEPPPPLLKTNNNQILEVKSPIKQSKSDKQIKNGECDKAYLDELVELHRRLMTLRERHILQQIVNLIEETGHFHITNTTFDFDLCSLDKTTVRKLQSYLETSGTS
Numbers without * were called inactive.

SMILES	AF4-AF9 inh
C[C@H](CO)N1C[C@H](C)[C@H](CN(C)CC2CCCCC2)Oc2c(NC(=O)Nc3ccc4c(c3)OCO4)cccc2C1=O	10
C[C@@H]1CN([C@H](C)CO)C(=O)Cc2cc(NC(=O)Cc3ccccc3)ccc2O[C@H]1CN(C)Cc1ccncc1	-0.9
Cc1ccccc1S(=O)(=O)N1CCCCN2[C@H](CO)[C@H](c3ccc(-c4cncnc4)cc3)[C@@H]2C1	-3.6
C[C@@H]1CCCCO[C@H](CN(C)C(=O)Nc2ccccc2)[C@@H](C)CN([C@@H](C)CO)C(=O)c2cc(NS(=O)(=O)c3ccccc3)ccc2O1	-1.7
COc1ccc(S(=O)(=O)N(C)C[C@@H]2Oc3ccc(NC(=O)Nc4ccc5c(c4)OCO5)cc3CC(=O)N([C@@H](C)CO)C[C@@H]2C)cc1	5.7
C[C@H]1CN([C@@H](C)CO)C(=O)c2cc(-c3cccc(C#N)c3)cnc2O[C@@H]1CN(C)Cc1ccccc1	-2.3
C[C@H]1CN([C@@H](C)CO)C(=O)c2cc(C#CCc3ccccc3)cnc2O[C@H]1CN(C)C(=O)C1CCOCC1	5.6
Cc1ccc(S(=O)(=O)Nc2cccc3c2O[C@@H](CN(C)Cc2ccc4c(c2)OCO4)[C@H](C)CN([C@H](C)CO)C3=O)cc1	0.1
CCCNC(=O)Nc1ccc2c(c1)OC[C@H](C)N(C(=O)C1CCCCC1)C[C@H](C)[C@H](OC)CN(C)C2=O	1.2
CO[C@@H]1CN(C)C(=O)c2ccc(NC(=O)C3CCCC3)cc2OC[C@@H](C)N(C(=O)Nc2ccc(C(F)(F)F)cc2)C[C@H]1C	-6.3
CC(C)NC(=O)Nc1cccc2c1O[C@@H](CN(C)Cc1ccc(C(F)(F)F)cc1)[C@H](C)CN([C@H](C)CO)C2=O	2.4
C[C@@H]1CN([C@@H](C)CO)C(=O)c2cccc(NS(=O)(=O)c3ccc(F)cc3)c2O[C@@H]1CN(C)C(=O)Nc1ccc(F)cc1	1.2
Cc1c(-c2ccccc2)nnn1-c1ccc(F)c(Cl)c1	-8.7
O=C1CN(Cc2ccccc2)C[C@@H]2[C@H](c3ccc(Br)cc3)[C@@H](CO)N12	2.0
O=C(C[C@@H]1C=C[C@H](NC(=O)c2ccccc2)[C@H](CO)O1)NCc1ccc(Oc2ccccc2)cc1	-2.9
COc1ccc2c3c(n(C)c2c1)[C@@H](CO)N(Cc1ccncc1)CC31CCN(C(=O)C2CCC2)CC1	-1.1
C[C@H]1CN([C@@H](C)CO)C(=O)Cc2cc(NC(=O)CCC(F)(F)F)ccc2O[C@@H]1CN(C)CC1CCCCC1	-13
CCNC(=O)C[C@@H]1CC[C@H]2[C@H](COc3ccc(NC(=O)Nc4c(C)noc4C)cc3C(=O)N2C)O1	-1.0
CO[C@@H]1CN(C)C(=O)c2cc(NC(=O)NC3CCCCC3)ccc2OC[C@@H](C)NC[C@H]1C	2.6
O=C1[C@@H]2[C@@H](CC(COc3ccccc3)=C3[C@@H](c4ccccc4)OB(O)C[C@@H]32)C(=O)N1Cc1ccccc1	3.4
C[C@@H]1CN([C@@H](C)CO)C(=O)c2cc(-c3ccc(F)cc3)cnc2O[C@H]1CN(C)C(=O)NC1CCCC1	-2.3
C[C@H]1CN([C@@H](C)CO)C(=O)c2c(c3ccccc3n2C)-c2ccccc2CO[C@@H]1CN(C)C(=O)[C@H](Cc1ccccc1)N(C)C	10
CC(C)NC(=O)N(C)C[C@@H]1Oc2ncc(-c3cccc(C#N)c3)cc2C(=O)N([C@H](C)CO)C[C@H]1C	-3.0
CCCNC(=O)[C@@H]1[C@@H](CO)[C@@H]2Cn3c(ccc(/C=C/c4ccccc4)c3=O)[C@H]1N2C(=O)c1cccnc1	-6.0
C[C@H](CO)N1C[C@H](C)[C@@H](CN(C)Cc2ccccc2)Oc2c(NS(=O)(=O)c3cccs3)cccc2C1=O	-1.8
COC(=O)[C@]12CCCCC=C1N(Cc1ccco1)C(=O)[C@H](CC(=O)N1CCCCC1)C2	-1.3
O=C(Nc1cc(F)ccc1F)N1C[C@@H]2[C@H](c3ccccc31)[C@H](CO)N2C(=O)c1ccccc1	-11
O=C([C@@H]1[C@@H](CO)[C@@H]2Cn3c(ccc(-c4ccncc4)c3=O)[C@@H]2N1CCC(F)(F)F)N1CCOCC1	-20
CC1(C(=O)Nc2cnc3ccccc3c2)CCN1Cc1ccccc1Cl (stereo not given)	-4.1
CN1C(=O)c2cc(NC(=O)C3CC3)ccc2OC[C@H]2O[C@@H](CC(=O)Nc3cccc(Cl)c3)CC[C@@H]21	-1.7
CC=Cc1ccc2n(c1=O)C[C@@H]1[C@@H](CO)[C@H](C(=O)N(C)C)N(CC3CCOCC3)[C@H]21 (mixture of isomers)	-1.9
COc1cc(OC)cc(C(=O)NC(C(=O)Nc2ccc3nc(C)sc3c2)C(C)C)c1 (stereo not given)	2.1
Cc1ccccc1S(=O)(=O)N1CC[C@@H]2[C@@H](CO)N(C)c3ccc(-c4cccc(C#N)c4)cc3[C@@H]21	2.2
C[C@@H]1CN([C@@H](C)CO)C(=O)c2cc(NC(=O)C3CC3)ccc2O[C@@H]1CN(C)C(=O)Nc1ccc2c(c1)OCO2	-3.5
N#Cc1cccc(-c2ccc(C3[C@H]4CNC[C@@H]3N4S(=O)(=O)Cc3ccccc3)cc2)c1 (stereo not given in full)	-2.2
O=CNc1cc(-c2ccc(C(=O)NC3CC3)cc2)cn2c(-c3ccccc3)cnc12	2.2
COc1ccc(NC(=O)Nc2ccc3c(c2)C(=O)N([C@@H](C)CO)C[C@H](C)[C@H](CN(C)S(=O)(=O)c2ccc(Cl)cc2)OCCCC[C@@H](C)O3)cc1	2.3
O=C(NCc1ccncc1)[C@@H]1CCCN1C(=O)[C@@H]1CCCN1C(=O)c1cccc2ccccc12	0.9
C[C@H](CO)N1C[C@H](C)[C@H](CN(C)C)Oc2c(NC(=O)Nc3ccc(F)cc3)cccc2C1=O	-2.1
CC=Cc1ccc2n(c1=O)C[C@@H]1[C@@H](CO)[C@H](C(=O)Nc3ccccc3)N(CC3CC3)[C@H]21 (mixture of isomers)	3.3

Compounds shown so far with an aryl methoxy group:
SMILES	AF4-AF9 inh
COc1ccc(S(=O)(=O)N(C)C[C@@H]2Oc3ccc(NC(=O)Nc4ccc5c(c4)OCO5)cc3CC(=O)N([C@@H](C)CO)C[C@@H]2C)cc1	5.7
COc1ccc2c3c(n(C)c2c1)[C@@H](CO)N(Cc1ccncc1)CC31CCN(C(=O)C2CCC2)CC1	-1.1
COc1cc(OC)cc(C(=O)NC(C(=O)Nc2ccc3nc(C)sc3c2)C(C)C)c1 (stereo not given)	2.1
COc1ccc(NC(=O)Nc2ccc3c(c2)C(=O)N([C@@H](C)CO)C[C@H](C)[C@H](CN(C)S(=O)(=O)c2ccc(Cl)cc2)OCCCC[C@@H](C)O3)cc1	2.3

The list goes on:
SMILES	AF4-AF9 inh
c1ccc(-c2nc(NCC3CC3)nc3ccsc23)cc1	-1.6
O=C(CC1CC1)N1CC2(C1)[C@H](c1ccccc1)[C@@H](CO)N2Cc1ccc(F)cc1	2.1
CC1(c2nc3ccccc3[nH]2)CCC2=Nc3ccccc3CN21 (stereo not given)	-1.5
O=C(NC1CCCCC1)N[C@@H]1CC[C@@H](CCNS(=O)(=O)c2ccc(Cl)cc2)O[C@H]1CO	3.3
C[C@H]1CN([C@@H](C)CO)S(=O)(=O)c2ccc(C#CC3(O)CCCC3)cc2O[C@@H]1CN(C)C(=O)Nc1cccc(F)c1	2.0
COc1ccc(NC(=O)Nc2ccc3c(c2)C(=O)N([C@@H](C)CO)C[C@H](C)[C@H](CN(C)S(=O)(=O)c2ccc(C)cc2)O3)cc1	0.1
CC=Cc1ccc2n(c1=O)C[C@@H]1[C@@H](CO)[C@H](C(=O)NCCOC)[C@H]2N1Cc1ccccc1OC (mixture of isomers)	-3.6
COc1ccc(S(=O)(=O)Nc2ccc3c(c2)[C@@H]2C[C@@H](CC(=O)NCC4CC4)O[C@H](CO)[C@@H]2O3)cc1	0.3
COc1ccc(C#Cc2cnc3c(c2)C(=O)N([C@H](C)CO)C[C@H](C)[C@@H](CN(C)C(=O)CC2CC2)O3)cc1	-10
NS(=O)(=O)c1ccc(CNC(=S)Nc2cc(S(=O)(=O)N3CCOCC3)ccc2Cl)cc1	5.4
CC(C)NC(=O)Nc1ccc2c(c1)CC(=O)N([C@H](C)CO)C[C@@H](C)[C@@H](CN(C)CC1CCCCC1)O2	-0.5
Cc1cccc(-c2ccc([C@H]3[C@H]4CN(C(=O)c5ccc6c(c5)OCO6)CCCCN4[C@H]3CO)cc2)c1	4.6
Cc1ccc(NC(=O)CNC(=O)C23CC4CC(CC(C4)C2)C3)nc1	-0.4
C[C@@H]1CN([C@@H](C)CO)S(=O)(=O)c2ccc(Br)cc2O[C@H]1CN(C)C(=O)c1cnccn1	-0.8
CN(C)CC(=O)Nc1ccc2c(c1)[C@@H]1C[C@H](CC(=O)NCc3ccccc3)O[C@H](CO)[C@@H]1O2	-3.9
C[C@@H](O)C#Cc1ccc([C@@H]2[C@@H](CO)N3CCCCN(C(=O)c4ccc5c(c4)OCO5)C[C@H]23)cc1	0.8
C[C@H](CO)N1C[C@H](C)[C@H](CN(C)C(=O)NC2CCCCC2)Oc2ncc(C#Cc3ccc(C(F)(F)F)cc3)cc2C1=O	-18
Cc1ccc(S(=O)(=O)Nc2ccc3c(c2)C(=O)N([C@H](C)CO)C[C@H](C)[C@@H](CN(C)S(=O)(=O)c2ccccc2)OCCCC[C@H](C)O3)cc1	-1.0
CO[C@H]1CN(C)C(=O)c2cc(NC(=O)CC(F)(F)F)ccc2OC[C@H](C)N(S(=O)(=O)c2cn(C)cn2)C[C@H]1C	-1.7
Cc1cn([C@H]2C[C@H](O)[C@@H](/C=C/C(=O)NCCc3ccc4ccccc4c3)O2)c(=O)[nH]c1=O	-0.6
C[C@@H]1CN([C@@H](C)CO)C(=O)c2cc(NC(=O)Nc3ccc(F)cc3)ccc2O[C@@H](C)CCCCO[C@H]1CN(C)S(=O)(=O)c1cn(C)cn1	2.2
CCN1CC(=O)N2[C@H](CO)[C@@H](c3ccc(Br)cc3)[C@H]2C1	4.6
CO[C@@H]1CN(C)C(=O)c2cc(NC(=O)C3CCC3)ccc2OC[C@@H](C)N(C(=O)NC(C)C)C[C@H]1C	1.3
O=C(Cc1ccccn1)N[C@H]1C=C[C@H](CC(=O)N2CCCCC2)O[C@@H]1CO	-2.5
COc1ccc(NC(=O)N(C)C[C@H]2Oc3cc(-c4cccc(C(=O)N(C)C)c4)ccc3S(=O)(=O)N([C@H](C)CO)C[C@@H]2C)cc1	0.1
C[C@H](CO)N1C[C@H](C)[C@H](CN(C)S(=O)(=O)c2ccc(Cl)cc2)OCCCC[C@H](C)Oc2ccc(NS(=O)(=O)c3cn(C)cn3)cc2C1=O	-0.3
CN1OC[C@@H]2CN(Cc3ccc(Cl)cc3)[C@H](c3ccc(N4CCCCC4)cc3)C[C@@H]21	17
C[C@@H]1CCCCO[C@@H](CN(C)S(=O)(=O)c2ccc(Cl)cc2)[C@@H](C)CN([C@@H](C)CO)C(=O)c2cc(NS(=O)(=O)c3ccc(F)cc3)ccc2O1	-5.4
COc1ccccc1N(CC(=O)N1CCCCC1C)S(=O)(=O)c1ccc(Cl)cc1 (stereo not given)	-3.4
C[C@@H]1CN([C@H](C)CO)C(=O)CCCn2nncc2CO[C@@H]1CN(C)Cc1cccc(C(=O)O)c1	0.3

Four entries drawn at random from those above, as already listed:
SMILES	AF4-AF9 inh
C[C@H](CO)N1C[C@H](C)[C@@H](CN(C)Cc2ccccc2)Oc2c(NS(=O)(=O)c3cccs3)cccc2C1=O	-1.8
CO[C@@H]1CN(C)C(=O)c2ccc(NC(=O)C3CCCC3)cc2OC[C@@H](C)N(C(=O)Nc2ccc(C(F)(F)F)cc2)C[C@H]1C	-6.3
O=C([C@@H]1[C@@H](CO)[C@@H]2Cn3c(ccc(-c4ccncc4)c3=O)[C@@H]2N1CCC(F)(F)F)N1CCOCC1	-20
C[C@@H]1CN([C@@H](C)CO)C(=O)c2cc(-c3ccc(F)cc3)cnc2O[C@H]1CN(C)C(=O)NC1CCCC1	-2.3

(further entries)
SMILES	AF4-AF9 inh
C[C@@H]1CN([C@H](C)CO)S(=O)(=O)c2ccc(C#CCC3CCCC3)cc2O[C@H]1CN(C)C(=O)c1cnccn1	6.5
COc1ccc(CN(C)C[C@H]2Oc3ccc(NS(=O)(=O)c4cccs4)cc3CC(=O)N([C@H](C)CO)C[C@@H]2C)cc1	-0.2
CC(C)NC(=O)N(C)C[C@H]1OCCCC[C@H](C)Oc2ccc(NC(=O)Nc3ccc(F)cc3)cc2C(=O)N([C@H](C)CO)C[C@@H]1C	-2.6
CC(C)C#Cc1cnc2c(c1)C(=O)N([C@H](C)CO)C[C@@H](C)[C@@H](CN(C)C(=O)Nc1ccccc1)O2	-2.1
CCc1nc2ccc(C(=O)Nc3ccc(OC)c(OC)c3)cn2c1N(C)Cc1cccs1	3.8
Cc1ccc(S(=O)(=O)N(C)C[C@@H]2Oc3ccc(NC(=O)Nc4cccc5ccccc45)cc3CC(=O)N([C@@H](C)CO)C[C@H]2C)cc1	0.2
NC(=O)[C@@H]1[C@H]2C(=O)O[C@H](c3ccccc3)[C@H](c3ccccc3)N2[C@H](c2ccc(O)cc2)[C@@]12C(=O)Nc1ccccc12	10
CN1c2ccc(-c3ccccc3)cc2[C@@H]2[C@@H](CCN2C(=O)Cc2ccccc2)[C@@H]1CO	5.1
C/C=C/c1cnc2c(c1)C(=O)N([C@@H](C)CO)C[C@@H](C)[C@@H](CN(C)S(=O)(=O)c1ccc(C)cc1)O2	-5.9
C[C@@H]1CCCCO[C@H](CN(C)S(=O)(=O)c2ccccc2)[C@H](C)CN([C@@H](C)CO)C(=O)c2cc(NS(C)(=O)=O)ccc2O1	-0.4
C[C@H](CO)N1C[C@H](C)[C@H](CN(C)S(=O)(=O)c2ccc(Cl)cc2)OCCCC[C@H](C)Oc2ccc(NC(=O)Nc3cccc4ccccc34)cc2C1=O	-3.5

These rows are one share of the data; the hit share may differ from the screen's.
